Screening data from PubChem.
VACV Venus inh: vaccinia inhibition (Venus reporter) | AID 720580 | Vaccinia virus Venus reporter expression, fluorescence | Potency, µM (doses to about 36.5 µM), without a hit: top-dose activity change, negative = inhibition, hits mostly inhibitors | actives 0.46% (n = 330,000); active means well fitted inhibition curve with a large enough effect; inconclusive means small, poorly fitted or top-dose-only effect; inactive means no such curve, though single readings can be large or run the other way; tested in A549 cells; further: nearly all actives have a fitted effect of over 30% in size; inactives centre near -10
VACV mCherry inh: inhibitors of vaccinia virus infection (mCherry reporter signal) | AID 720579 | Vaccinia virus mCherry reporter infection, fluorescence; about a quarter of the inactives have no number | Potency, µM (series often up to 36.5 µM), for inactives: top-dose activity change, negative = inhibition, most hits filed as inhibitors | actives 0.63% (n = 310,000); active = well fitted inhibition curve with a large enough effect; inconclusive = small, poorly fitted or top-dose-only effect; inactive = no such curve, though single readings can be large or run the other way; tested in A549 cells; further: nearly all actives have a fitted effect of over 35% in size; inactives centre near -10
Starred values were filed as active, the others as inactive; i = inactive; ? = inconclusive; / = no result given; & = joins results of further samples; [ ] = dose if it differs, or a comment. On the % scale 0 is the no-effect control and ±100 the full control effect; potency means the concentration at half of the fitted maximal effect.

molecule	VACV Venus inh	VACV mCherry inh
CC1CN(C(=O)c2ccc(S(=O)(=O)Nc3ccccc3Cl)cc2)CC(C)O1 (configuration not stated)	-10%	i
CSc1ccc(CNC(=O)C2(C)CCCN(C(C)=O)C2)cc1 (configuration not stated)	4%	-1%
COc1ccc(-c2ccc3c(N)c(C(=O)NCc4ccc(Cl)cc4)sc3n2)cc1	-14%[7.34 µM]	-21%[7.34 µM]
COc1cc(C(=O)NCCc2ccc(F)cc2)c([N+](=O)[O-])cc1OC	-14%	-15%
CCCCCCC1(C)NC(c2ccc3c(c2)OCO3)=CC(c2ccccc2O)N1 (configuration not stated)	-4%	34%[activator]
N#Cc1c(Nc2ccccc2)s[nH]c1=O	-18%	-23%
O=C(c1ccc(NS(=O)(=O)c2ccc3[nH]c(=O)[nH]c3c2)cc1)N1CCCCC1	-7%	i
O=C(CC(=O)Nc1cccnc1)Nc1cccnc1	-7%	i
CC1=C(C(=O)N2CCCCCC2)CC(CC(=O)NCCc2ccccn2)C(=O)N1Cc1ccc(F)cc1 (configuration not stated)	3%	-1%
COc1ccc(OCC(=O)N2CCN(C(=O)c3cccc(OC)c3OC)CC2)cc1	0%	-4%
O=C(CSc1nnc(CNC(=O)c2c(F)cccc2F)o1)NCCc1ccccc1	-9%	-24%
Fc1ccc(Oc2cnc3ccccc3n2)cc1	-12%	i
COc1cc(C2NC(=S)NC3=C2CCc2ccccc23)cc(OC)c1OC (configuration not stated)	-9%	-19%
O=C(N[C@@H](Cc1ccc(O)cc1)C(=O)O)c1ccc(C(F)(F)F)cc1	-5%	i
Cc1ccc(-n2ncc(C(=O)NCCCN3CCCCC3)c2C2CCN(C(=O)OC(C)(C)C)CC2)c(C)c1	-3%	i
COc1cc(C(=O)N2CCN(C(=O)C3COc4ccccc4O3)CC2)cc(OC)c1OC (configuration not stated)	-10%	-14%
COc1ccccc1N1CCN(CC(O)COc2ccc(Cl)c(C)c2)CC1 (configuration not stated)	-6%	-25%
CC(C)(C)c1csc(NC(=O)c2ccc(Cl)s2)n1	?	/
Cc1ccccc1-c1nc2c3c(-c4ccccc4)c(-c4ccccc4)oc3ncn2n1	-7%	-11%
Cc1ccccc1C1CC(c2cccs2)Nc2nnnn21 (configuration not stated)	-14%	-11%
CC(=O)Nc1ccc(NS(=O)(=O)c2ccc(-c3cnc(C4CC4)o3)cc2)cc1	-16%	-10%
COc1cc(CN(C(=O)c2oc3ccccc3c2C)C2CCS(=O)(=O)C2)cc(OC)c1OC (configuration not stated)	-4%	-1%
CCc1ccc(OCC(=O)NNC(=O)c2nn(CC)c(=O)c3ccccc23)cc1	-6%	-8%
Cc1ccc(Nc2cnn(C34CC5CC(CC(CC(=O)O)(C5)C3)C4)c(=O)c2Cl)c(Cl)c1	-9%	i
CCCN(CCC)C(=O)Cn1c(=O)n(-c2cccc(OC)c2)c(=O)c2c3c(sc21)CCCC3	-9%	-2%
NC(=O)C1CC(=O)N(c2ccc(OCc3ccc(Cl)c(Cl)c3)cc2)C1 (configuration not stated)	-10%	1%
O=C(O)c1ccccc1-c1ccccc1C(=O)Nc1nccs1	-2%	i
CCC(C)(C)n1nnnc1C(c1ccccc1OC)N1CCN(C(=O)c2ccco2)CC1 (configuration not stated)	-18%	i
O=C(Nc1cccc(NC(=O)c2cccc(Cl)c2)c1)c1cccnc1	-7%	i
CCOc1ccc(-n2cnnn2)cc1S(=O)(=O)N1CCC(C)CC1C (configuration not stated)	-5%	-11%
COc1ccc(S(=O)(=O)N(C)C)cc1NCC(=O)Nc1ccc(Br)c(C)c1	-20%	-28%
CCOC(=O)c1c(NC(=O)c2noc3c2CC(C(C)(C)C)CC3)sc2c1CCCC2 (configuration not stated)	-8%[7.34 µM]	-9%[7.34 µM]
Cc1cccc(N=C2NC(=O)/C(=C/c3cccs3)S2)c1	-10%	-22%
CCOC(=O)C1=CCN(S(=O)(=O)c2ccccc2F)C1c1ccc(Cl)cc1 (configuration not stated)	9%	9%
Cc1cc(Cl)ccc1OC(C)C(=O)Nc1ccccc1N1CCOCC1 (configuration not stated)	-6%	-10%
CCn1c(=O)c2cc(C(=O)Nc3ccc(OC)cc3OC)sc2c2ccccc21	-5%	-12%
COc1nc(=O)n(C2C=CC(=O)O2)cc1F (configuration not stated)	-22%	-16%
CCCn1cnnc1CNC(=O)[C@H]1O[C@@H](n2cnc3c(N)ncnc32)[C@H](O)[C@@H]1O	-2%	i
Cc1nn(-c2ccc(N3CCCC3)nn2)c(C)c1CCC(=O)Nc1ccc(F)cc1F	-17%	-12%
CCc1c(C)nc(N)nc1OCC(F)(F)C(F)F	-5%	-30%
COc1ccc(S(=O)(=O)N(CCC(N)=O)Cc2ccco2)cc1OC	-10%[7.34 µM]	i[7.34 µM]
C=CCOc1ccc(CNn2cn[nH]c2=S)cc1OC	-11%	-6%
CCOc1ccc(C(=O)OCc2cc(=O)n3cc(C)sc3n2)cc1	-11%	-8%
CCN1CCN(C(=O)CS(=O)Cc2nc(-c3ccc(OC)cc3)oc2C)CC1 (configuration not stated)	-13%	i
CC(C)C(NS(=O)(=O)c1ccccc1)C(=O)OCC(=O)NNC(=O)c1ccccc1 (configuration not stated)	-15%	-13%
CCN(CC)CCN=Cc1c(O)n(CCC2=CCCCC2)c(=O)[nH]c1=O	-8%	i
Cc1cc(=O)oc2cc(Oc3ccc([N+](=O)[O-])cc3C(F)(F)F)ccc12	-11%	?
CCOC(=O)c1ccc(N2C(=O)CC(N3CCN(C/C=C/c4ccccc4)CC3)C2=O)cc1 (configuration not stated)	-13%	/
O=C(NCc1cccs1)Nc1cccs1	-1%	2%[1.46 µM]
O=c1[nH]c(=O)n(C2CC(O)C(CO)O2)cc1F (configuration not stated)	?	?
Cc1ccc2[nH]c3c(c2c1)CCCC3NC(=O)CCl (configuration not stated)	-29%	-25%
O=C(CSc1cn(CCNC(=O)c2c(F)cccc2F)c2ccccc12)Nc1ccc2c(c1)OCCO2	-9%	-8%
COc1ccc(CN2C(=NC(=O)C3CCCO3)SC3CS(=O)(=O)CC32)cc1OC (configuration not stated)	-10%	-19%
COc1ccccc1NC(=O)c1ccc(NC(=O)c2ccco2)cc1	-6%	13%
CN(C)S(=O)(=O)n1cnc2ccccc21	4%	-9%
COc1ccc(OCCC(=O)OCC(=O)NCCc2ccccc2)cc1	-3%	-6%
Cc1ccc(CNS(=O)(=O)c2ccc3c(c2)n(C)c(=O)c(=O)n3C)cc1	-15%	-21%
COC(=O)[C@@]12C[C@@H](CC(=O)N3CCCC3)C(=O)N(CCc3ccc(OC)c(OC)c3)C1=CCC(C)(C)C2	-1%	-2%
FC(F)(F)C(F)(F)c1nc2nc(Cl)c(Cl)nc2[nH]1	-13%	-20%
O=C(CSc1nccn1Cc1ccccc1)NCc1ccccc1	-17%	i

(further entries)
molecule	VACV Venus inh	VACV mCherry inh
NC(=O)C1CCN(C(=O)/C(=C/c2ccco2)NC(=O)c2ccccc2)CC1	-14%	3%
Cc1cc2nc(N3C(=O)CNC3=S)sc2cc1C	-19%	-18%
O=C(COc1ccc2ccccc2c1)N[C@@H](C(=O)O)c1ccc(O)cc1	-9%	i
Cc1nc(NC(=O)CSc2nc3ccccc3s2)sc1C(=O)N(C)C	-14%	-19%
C=CCNCCOCCSc1ccc(Cl)cc1	-3%	i
CCOC(=O)N1CCN(C(=O)C2CCN(S(=O)(=O)N3CCCC3)CC2)CC1	-13%	i
CC(=O)Nc1ccc(NC(=O)CCc2nc3sc4c(c3c(=O)[nH]2)CCCC4)cc1	-7%	-11%
Cc1cccc(NC(=O)Nc2ccc(C)c(C)c2)n1	-3%&-10%	-7%&-10%
Cc1ccc(-c2csc3nc[nH]c(=O)c23)cc1	-9%	i
COc1ccc(-c2nc(CSCC(=O)N3CCN(c4ccccc4F)CC3)c(C)o2)cc1	?	?
CC1(C(=O)NS(=O)(=O)c2ccc3c(c2)CCO3)CCN1C(=O)C1(c2ccc(Cl)cc2)CCC1 (configuration not stated)	1%	37%[activator]
CC1=C(C(=O)OCc2ccccc2)C(c2cccc(Cl)c2Cl)CC(=O)N1 (configuration not stated)	-21%	-17%
COc1ccc(Oc2ncnc3c2ncn3Cc2ccccc2)cc1	?	/
COc1cc(Nc2ncc3c(n2)CCN(C(=O)Nc2ccc(C(C)C)cc2)C3)cc(OC)c1OC	-22%	-10%
COC(c1ccccc1)c1nnc(CCC(=O)NC2CCCCC2)o1 (configuration not stated)	-6%	i
COC(=O)c1ccc2c(=O)n(CCN3CCOCC3)c(SCC(=O)NCc3ccccc3)nc2c1	-15%	i
CCOC(=O)c1cnc2ccc(OCC)cc2c1NCc1ccccc1OC	-4%	-15%
CCOC(=O)C1(Cc2ccc(Cl)cc2)CCN(C(=O)c2cscn2)CC1	-4%	-11%
CCOc1cccc(/C(O)=C2/C(=O)C(=O)N(CCOC)C2c2ccncc2)c1 (configuration not stated)	-6%	-11%
CCOC(=O)CC(=O)Nc1ccccc1C(=O)O	?	/
COc1ccc(/C=N/Nc2nonc2N)cc1OC	-9%	-25%
CC1(C(=O)NS(=O)(=O)c2ccc(Br)cc2)CCN1C(=O)c1cccc(F)c1 (configuration not stated)	12%	29%
NS(=O)(=O)c1ccc(CNS(=O)(=O)c2ccc3c(c2)OCCO3)cc1	-14%	-15%
CCc1nc2c(OCc3ccc(Cl)cc3Cl)cccn2c1N(C)C(=O)CC(C)C	-11%	i
COc1ccc(OC)c(CN2CCN(Cc3cc(=O)oc4cc(O)ccc34)CC2)c1	4%	-12%
C=CCCCCCCCCc1nc(=S)[nH][nH]1	-13%	/
CCOc1ccc(CCNC(=O)c2ccc(C)c(-n3cnc4cccnc43)c2)cc1	-14%	-12%
CCCNC(=O)CN1C(=O)COc2ccc(S(=O)(=O)N3CCCC3)cc21	-11%	-9%
O=C(CNC(=O)c1ccccc1)Oc1cccc(Cl)c1	-7%[7.34 µM]	i[7.34 µM]
Cc1sc2ncnc(Sc3ccccc3C(=O)O)c2c1C	-13%	-2%
Cc1cccc(C)c1NC(=O)C1CCCN1C(=O)OC(C)(C)C (configuration not stated)	-7%	-9%
Cc1csc(-c2cnn(-c3ccccc3)c2NC(=O)c2cccc(C(F)(F)F)c2)n1	-5%	-12%
Cc1sc(NC(=S)NC(=O)c2ccco2)c(C#N)c1C	-6%	-2%
CCOC(=O)C1=C(CS(=O)(=O)c2ccc(F)c(C)c2)NC(=O)NC1c1ccc(F)c(F)c1 (configuration not stated)	-11%	-16%
O=C(Nc1ccncc1)c1ccc2c(c1)S(=O)(=O)c1ccccc1C2=O	-25%	-23%
CCOC(=O)c1c(C)c(-c2ccccc2)n(CC(=O)N2CCCC2)c1C	-2%	i

Single records (already shown). Order of screens: VACV Venus inh	VACV mCherry inh
`Cc1sc2ncnc(Sc3ccccc3C(=O)O)c2c1C` is listed as -13%	-2%
`Cc1csc(-c2cnn(-c3ccccc3)c2NC(=O)c2cccc(C(F)(F)F)c2)n1` is listed as -5%	-12%
`O=C(Nc1ccncc1)c1ccc2c(c1)S(=O)(=O)c1ccccc1C2=O` is listed as -25%	-23%
`CCOc1ccc(CCNC(=O)c2ccc(C)c(-n3cnc4cccnc43)c2)cc1` is listed as -14%	-12%

The list continues:
molecule	VACV Venus inh	VACV mCherry inh
COc1ccc(C(=O)c2[nH]c(N)c(C(=O)NCCc3c[nH]c4ccccc34)c2-c2c(F)cccc2Cl)cc1	-23%	-23%
Cc1c(N=Cc2c(O)n(Cc3ccccc3)c(=O)[nH]c2=O)c(=O)n(-c2ccccc2)n1C	-16%	-27%
Cc1cc(NS(=O)(=O)c2ccc(NC(NC(=O)C(C(F)(F)F)C(F)(F)F)(C(F)(F)F)C(F)(F)F)cc2)no1	-1%	/
Cc1ccc(Cl)cc1NC(=O)CSc1sc2c(O)cc(=O)[nH]c2c1C#N	2%	i
O=C(Cn1cnc2ccccc2c1=O)c1ccc2c(c1)OCCO2	-2%	/
Cc1nnc2ccc(-c3ccc(NC(=O)c4cccnc4Cl)cc3)nn12	11%	i
O=C(COC(=O)c1cc(S(=O)(=O)N2CCCC2)ccc1O)Nc1ccccc1Br	-22%	-5%
C[C@H](CO)N1C[C@H](C)[C@@H](CN(C)C(=O)Nc2ccc3c(c2)OCO3)Oc2c(NS(=O)(=O)c3cn(C)cn3)cccc2C1=O	-7%	i
COc1ccc(NC(=O)C2CCC(CNS(=O)(=O)c3cccc4nsnc34)CC2)cc1OC (configuration not stated)	-25%	?
CCN(CC)C(=O)Cn1cc(C(=O)C(=O)NCc2ccccn2)c2ccccc21	-7%	i
CN1OC[C@@H]2CN[C@H](c3cccc(N4CCOCC4)c3)C[C@@H]21	-6%	i
COCCOC(=O)c1c(N)n(Cc2ccc(OC)cc2)c2nc3ccccc3nc12	-20%	-13%
N#CC1=C(N)C(C#N)(C#N)[C@H](c2ccoc2)[C@H]2CN(Cc3ccccc3)CC=C12	?	/
